T cruzi inh = blocks replication of Trypanosoma cruzi | inhibition, % (concentration not given with the values) | T. cruzi beta-gal in NIH3T3, luminescence, 90 h | hit rate 1.4% among 300,000;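 active = mean inhibition across valid replicates above about 55%, limit read from the data; inconclusive = mean below that limit but half or more replicates reach it; inactive = mean below it, under half of replicates reach it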;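 also: signal also drops with host cell toxicity which is not excluded here; 0% = plate median of DMSO wells and 100% = zero luminescence signal; higher percent means less beta-gal luminescence so fewer parasites; stock transfer was 50 nL into about 50 µL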
Calb FLC = C. albicans growth modulation with fluconazole. C. albicans CaCi-2 (fluconazole-resistant clinical isolate) + fluconazole, Alamar Blue growth, 48 h. growth inhibition, % (no concentration beside the values). hit rate 0.57% among 300,000. AID 1979;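 active = most replicates above 75%; inconclusive = exactly half above 75%; inactive = most below 75%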;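 also: all wells also contain fluconazole at 8 µg/ml as a sub-toxic cotreatment; 0% = median of DMSO wells and 100% = median of geldanamycin control wells; wells of about 8 µL received 7.5 nL stock; the first replicate is given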
Bfl-1 A1 inh = inhibitors of the anti-apoptotic protein A1, read as caspase activation. MEF A1-2A-BIM cells, Caspase-Glo 3/7 luminescence, 3 h; percent of clofoctol response, vehicle zero. caspase activation, % (test concentration not listed). hit rate 0.066% among 330,000;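 active = over half of replicate activation scores above 10%, or exactly half above 10 with the replicate mean above 10; inconclusive = replicate mean below 10 yet half the replicates above 10; inactive = over half of replicates below 10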;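 also: wells of about 30 µL received 50 nL stock; many hits fall short of the cut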
Beta cell apopt = blocks beta cell apoptosis; INS-1E cytokine-induced death, ATP luminescence, 48 h; percent of positive-control rescue, neutral wells zero; protection from apoptosis, % (test concentration not listed); hit rate 0.8% among 300,000; AID 435005;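 active = all replicates at 75% or more, or half of them and the mean; inconclusive = half reach 75% but not the mean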;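 also: 0% = cytokine-treated negative control wells and 100% = positive control rescue; higher means more ATP so stronger rescue from cytokine killing; wells of about 40 µL received 100 nL stock; the first replicate is given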
Ecoli rRNA inh = inhibitors of bacterial rRNA selective over humanized ribosomes; E. coli WT GFP vs humanized-ribosome RFP mutants, fluorescence, 24 h; hits give low values; DMSO median 0, no signal -100; AID 720706; hit rate 1.6% among 350,000; GFP signal change (wild-type ribosome), % (no concentration beside the values);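 active = significant combined selectivity score with lowered wild-type GFP, culture density cut under 30%, mutant RFP and density less affected; inactive = any of these conditions unmet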; also: one replicate is shown; some compounds called inactive have numbers as strong as hits
LANA-H2A inh = blocks KSHV LANA binding to histone H2A/H2B; Q9QR71; cell-free LANA-H2A/H2B peptide, fluorescence polarization; inhibition, % (no concentration beside the values); hit rate 0.6% among 320,000; AID 2629; in the data active = inhibition mostly above about 10%, no sharp cut-off; inactive = mostly below about 6.7%;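 also: stock transfer was 7.5 nL into about 10 µL; 0% = median of vehicle wells and 100% = median of positive control wells; one replicate is shown; the record names a cut of 25% in any replicate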
Beta2AR agonist = activates human beta-2 adrenergic receptor causing internalization; P07550; Am2.2-beta2AR cells, FAP receptor internalization, flow cytometry; reference of the scale not given here; response, % (concentration not given with the values); hit rate 0.43% among 340,000;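 active = response above a set limit, near 3 SD of response in nonfluorescent compounds, cut at about 42% in these data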;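 also: stock transfer was 100 nL into about 11 µL; a reference agonist was the positive control; negative values mostly stem from fluorescent compounds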
Target sequence (P07550 whole entry, looked up): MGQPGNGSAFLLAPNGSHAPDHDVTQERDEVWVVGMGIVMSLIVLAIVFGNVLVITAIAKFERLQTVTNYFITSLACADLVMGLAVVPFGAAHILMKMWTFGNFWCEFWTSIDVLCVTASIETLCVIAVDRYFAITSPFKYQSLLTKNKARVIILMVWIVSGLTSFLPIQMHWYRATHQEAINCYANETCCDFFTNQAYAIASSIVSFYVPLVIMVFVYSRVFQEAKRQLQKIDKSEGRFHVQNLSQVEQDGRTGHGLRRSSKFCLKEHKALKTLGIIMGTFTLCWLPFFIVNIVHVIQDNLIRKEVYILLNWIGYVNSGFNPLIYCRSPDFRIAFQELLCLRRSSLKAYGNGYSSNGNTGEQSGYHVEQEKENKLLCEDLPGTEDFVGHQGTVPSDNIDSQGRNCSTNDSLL
ALR inh = inhibitors of human sulfhydryl oxidase ALR; P55789; inhibition, % (test concentration not listed); purified ALR, DTT oxidation, H2O2 HRP-luminol luminescence; hit rate 3.8% among 290,000;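 active = mean and each replicate at 75% or more; inconclusive = only one of the two met; inactive = neither met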;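 also: stock transfer was 7.5 nL into about 7.5 µL; 0% = neutral wells and 100% = wells with inactivated enzyme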
Target sequence (P55789 whole entry, looked up): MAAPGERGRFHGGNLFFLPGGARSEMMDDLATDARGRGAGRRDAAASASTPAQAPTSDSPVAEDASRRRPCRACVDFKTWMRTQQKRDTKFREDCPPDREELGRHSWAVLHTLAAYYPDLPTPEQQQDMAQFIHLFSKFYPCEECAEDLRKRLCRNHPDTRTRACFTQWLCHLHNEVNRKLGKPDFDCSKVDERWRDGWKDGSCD
Ecoli rRNA inh OD600 = also measured in Ecoli rRNA inh; calls as there; OD600 change, %; measured here: OD600 growth;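 optical density of the mix in the first replicate; 0 = DMSO median and -100 = no signal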
Ecoli rRNA inh RFP = further read-out of Ecoli rRNA inh, marked with its call; RFP signal change, %; measured here: RFP humanized mutant strains;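 first replicate; 0 = DMSO median and -100 = no signal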
* hit, by the source's call; ? = inconclusive; . = no result given. A portion of the library; the hit share may differ from the screen's.

Screens in order: T cruzi inh	Calb FLC	Bfl-1 A1 inh	Beta cell apopt	Ecoli rRNA inh	Ecoli rRNA inh OD600	Ecoli rRNA inh RFP	LANA-H2A inh	Beta2AR agonist	ALR inh
CC(CC(=O)Nc1ccc(F)cc1)S(=O)(=O)c1ccc2c(c1)NC(=O)CO2 (centres undefined)
    -10	-6	0.3	1	4	0	-2.6	-0.5	-2	-9
O=C(COC(=O)c1c(Cl)cccc1Cl)NC1CCCCC1
    6	-41	1.4	-2	-13	-25	-3.5	2.7	-4	-15
CCNC(=O)CN(c1ccc(CC)cc1)S(C)(=O)=O
    -6	1	-0.3	0	.	.	.	2.3	-5	-10
Cc1ccc(NC(=O)C2(c3ccccc3)CCOCC2)cc1
    -18	-1	0.3	-5	6	4	-0.3	1.9	0	0
Cc1ccc(OCC(=O)N/N=C/c2c[nH]c3ccccc23)c([N+](=O)[O-])c1
    -6	0	0.2	-2	.	.	.	0.9	-21	-33
Cc1ccc(NC(=O)C2CCN(C(=O)c3ccccc3C)CC2)nc1
    -7	7	1.0	-5	17	10	4.9	0.4	-4	4
CCOC(=O)C1=C(C)NC2=C(C(=O)CCC2)C1c1cc(OC)ccc1OC (centres undefined)
    17	-2	0.1	-4	4	1	-1.9	0.6	0	-11
C#CCn1c(=NC(=O)CSCC(=O)N2CCOCC2)sc2ccccc21
    -7	32	0.6	3	4	6	-1.2	0.2	-10	96*
O=C1CCc2cc(S(=O)(=O)NC3CCCCC3)ccc2N1
    .	.	0.9	1	1	2	-1.6	-0.2	-2	.
Cc1ccc(OCC(=O)c2ccc(Cl)s2)c([N+](=O)[O-])n1
    -3	-10	-0.1	1	0	6	7.8	0.6	11	46
COc1ccc(CNC(=O)N2CCc3ccccc3C2)cc1Cl
    -4	-4	0.0	3	-16	-24	-1.2	0.4	-9	.
CCNC(=O)COC(=O)c1cc(-c2ccc(OC)cc2)nc2ccccc12
    -20	14	-4.8	0	.	.	.	-4.6	5	1
Cn1c2ccccc2c2cnn(CC(=O)Nc3ccc(F)cc3F)c(=O)c21
    -15	-1	0.2	-9	18	4	2.9	1.2	-2	-1
CCOc1ccc(S(=O)(=O)N2CCCCC2)c(C)c1C
    7	23	.	.	-51	-74	-9.5	.	-2	.
O=C(CN1CCN(c2ccccc2O)CC1)Nc1ccnn1C1CCCC1
    .	.	-0.6	7	-1	8	-0.7	-29	2	.
COC(=O)C(CC(=O)c1ccc(Cl)cc1)c1ccc(C(C)C)cc1 (centres undefined)
    -3	4	-0.7	-3	.	.	.	-1.3	5	0
O=C(CC1SC(N2CCCCC2)=NC1=O)Nc1ccc(C(=O)NCCc2ccc(F)cc2)cc1 (centres undefined)
    .	.	-0.4	-4	-8	-9	3.2	-7.9	1	29
Cc1cnc(NC(=O)CSc2ccccc2)s1
    -9	-35	0.3	-2	-6	8	-6.4	2.7	-4	-4
CS(=O)(=O)N(CCc1ccccc1)CC(=O)NCc1ccc(Cl)cc1
    9	27	-0.3	1	-24	-27	-6.1	-2.0	-1	7
CCOc1ccc(NC(=O)c2sc3nc(N4CCOCC4)c4c(c3c2N)CCCC4)cc1
    10	1	2.1	3	3	10	-3.8	5.6	9	-5
O=[N+]([O-])c1cccc(Cl)c1NCCNS(=O)(=O)c1ccccc1
    -14	6	-0.2	1	.	.	.	-1.7	4	-7
Cc1ccc(C)c(NC(=O)CSc2nc(C)cc(C)c2C#N)c1
    -6	-13	0.8	5	.	.	.	-6.4	0	1
Cc1ccc(-c2csc(NC(=O)CCNC(=O)c3ccccc3Cl)n2)cc1
    -12	-10	0.0	5	-51	-62	-6.1	0.8	3	11
Cc1nc(NC(=O)c2ccco2)sc1C(=O)Nc1ccc(Br)cc1
    -9	?	-1.4	.	.	.	.	-3.4	4	-7
COc1ccccc1C(=O)N/C(=C\c1ccc(Br)cc1)C(=O)NCCO
    -9	4	0.7	.	.	.	.	0.8	-9	-2
CCOC(=O)C1=C(C)NC(=O)/C1=C\N(C)C
    -12	5	0.3	1	14	15	3.9	-2.6	0	7
COC(=O)c1ccccc1SC1CC(=O)N(c2cccc(C)c2)C1=O (centres undefined)
    -1	1	0.2	-3	17	5	6.5	-0.5	-1	24
CC(=O)c1cccc(N(CC(=O)Nc2ccc(F)cc2)S(C)(=O)=O)c1
    -8	6	1.6	-1	.	.	.	-4.2	-1	.
Cc1cc(=O)oc2c(C)c(OCC(=O)NCC3CCC(C(=O)O)CC3)ccc12 (centres undefined)
    -4	2	-0.1	.	.	.	.	0.8	3	-19
CCC(CC)=N/N=C/c1c(O)n(CC)c2cc(C3=NNC(=O)CC3)ccc12
    -9	-10	-1.4	-1	.	.	.	-4.2	18	65
Cc1cccc(CSCC(=O)NCc2ccc(S(N)(=O)=O)cc2)c1
    -10	0	-0.2	-3	3	0	1.4	13	-1	0
OC(COc1ccccc1)CN1CCCCCC1 (centres undefined)
    -4	-1	0.2	-8	3	3	1.4	-1.4	-11	-21
COc1ccc(-c2noc(CN(C)C(=O)CCN3C(=O)[C@H]4CC=CC[C@H]4C3=O)n2)cc1
    9	-10	0.3	1	10	5	0.8	1.2	8	1
Cc1ccc(NC(=O)CSc2nn(-c3ccc(Cl)cc3)c(=S)s2)cc1S(=O)(=O)N(C)C
    11	-1	0.3	2	-11	-12	1.2	-2.9	1	37
CCN1CCc2c(OCC(=O)Nc3cccc(C)c3)cccc2C1=O
    -9	1	0.8	-2	2	12	-0.3	-1.4	-5	2
Cc1ccc(S(=O)(=O)Cn2nnnc2C(CC(C)C)N2CCN(C(=O)c3ccco3)CC2)cc1 (centres undefined)
    4	-9	0.9	0	.	.	.	-3.9	-7	.
O=C(c1ccc(Cn2ccc([N+](=O)[O-])n2)cc1)N1CCN(Cc2ccccc2)CC1
    10	3	0.4	-17	22	3	-1.8	6.1	-9	1
CCCc1nnc(NC(=O)CCC(=O)N2CCN(c3ccccn3)CC2)s1
    -9	-22	0.2	-1	.	.	.	6.3	2	-3
Cc1cccc2cc3ccccc3nc12
    -13	-7	0.0	-1	20	5	1.8	5.7	4	10
N#CC1(NC(=O)COC(=O)Cn2[nH]c(=O)c3ccccc3c2=O)CCCCC1
    6	-3	-0.3	-1	7	9	1.3	-1.2	-3	5
COc1ccc(CCNC(=O)CC2SC(=NCCC(C)C)NC2=O)cc1OC (centres undefined)
    -6	-14	0.0	-4	2	12	-6.9	-1.1	14	-12
CC(=O)Nc1ccc(NC(=O)Cc2ccc(F)cc2)cc1
    3	-1	-0.1	.	.	.	.	-1.3	.	0
CCN(CC)S(=O)(=O)c1ccc(N2CCOCC2)c(NC(=O)c2ccc(F)cc2)c1
    24	10	-1.0	3	3	6	-0.7	0.8	-26	0
COc1ccc(C)cc1NC(=S)N1CCOCC1
    0	-6	0.9	3	16	3	-0.3	-1.2	3	-28
N#C/C(=C/c1ccc(Sc2nc3ccccc3[nH]2)o1)c1cccc(Br)c1
    ?	4	-0.7	1	.	.	.	-0.2	14	-3
Cc1ccc(Cn2ccc(NC(=O)c3cc(-c4ccc5c(c4)OCO5)on3)n2)cc1
    -13	-2	.	.	6	5	1.3	.	1	.
Cc1c(NS(=O)(=O)N2CCCC2)c(=O)n(-c2ccccc2)n1C
    8	-6	0.2	-6	.	.	.	1.5	-2	12
CC(=O)N1CCN(C(=O)COc2ccc3oc4c(c3c2)CCCC4)CC1
    -4	4	-0.3	0	-1	-2	1.1	3.2	-22	-7
O=C(O)Cn1c(COc2ccc(Cl)cc2)nc2ccccc21
    -9	-5	-0.3	-2	-20	-32	-11	-2.3	-4	-14
CCOc1ccc(N=Nc2c(C)noc2C)cc1
    .	5	-0.7	-2	18	12	0.7	-1.4	1	.

Next compounds follow.
Screens in order: T cruzi inh	Calb FLC	Bfl-1 A1 inh	Beta cell apopt	Ecoli rRNA inh	Ecoli rRNA inh OD600	Ecoli rRNA inh RFP	LANA-H2A inh	Beta2AR agonist	ALR inh
CC1=C(C(=O)OCC(C)C)C(c2ccc(F)cc2)NC(=O)N1 (centres undefined)
    -1	16	0.4	3	-20	-17	2.4	-2.7	-7	-1
CC1(C)CC(=O)C=C(NCC(O)c2ccccc2)C1 (centres undefined)
    -15	-4	1.0	-9	22	14	3.8	-2.4	-4	8
COc1ccc(/C=N/n2cnnc2SCc2ccccc2)cc1
    2	-4	0.0	-3	.	.	.	2.4	-3	-50
COC(=O)c1cccc(S(=O)(=O)N2CCC(c3nc4ccccc4o3)CC2)c1
    5	-6	-0.4	.	3	1	6.8	0.9	-1	26
COc1ccc(CNC(=O)Cn2c(=O)n(CC(=O)N3CCCCC3)c(=O)c3sccc32)cc1
    -12	0	0.7	0	1	5	-0.5	-1.3	1	-4
O=c1c2ccccc2nc2oc3ccccc3n12
    8	-2	-6.7	6	18	14	0.7	0.3	-1	4
Cc1cccc(NC(=O)CNC(=O)c2cccc(-n3cccc3)c2)c1C
    1	7	0.4	0	4	8	1.0	-1.6	-4	-6
O=C(CSc1ncn[nH]1)c1cc2ccccc2o1
    4	-5	-1.3	1	15	13	4.3	0.7	-149	-16
CCn1cc(C(=O)NCCO)c(=O)c2cc(F)c(N3CCN(C)CC3)cc21
    0	-4	-1.1	-7	-54	-80	-16	2.2	-5	-8
O=C(CSCc1cccc(F)c1)NCc1ccccc1
    -22	8	0.9	-13	-6	5	-2.4	3.8	-4	-34
CCCn1c(C)cc(C(=O)CN2C(=O)c3ccccc3C2=O)c1C
    4	-8	-0.2	2	-4	-2	1.1	-1.6	-1	-4
COc1cccc(-c2c(C(=O)N/N=C(\C)c3cccs3)nnn2-c2nonc2N)c1
    13	-7	-0.9	6	1	1	0.8	-6.3	-1	-36
CCS(=O)(=O)N1CCC(C(=O)NCc2cccs2)CC1
    2	23	-0.4	.	.	.	.	-4.0	8	-10
COc1cc(/C=C2/SC(=S)N(CCC(=O)Nc3ccc(C(=O)O)cc3)C2=O)cc(OC)c1OC
    -14	16	0.0	-1	-1	4	-0.6	6.7	2	53
CCn1nc(NS(=O)(=O)c2ccc(C)cc2)c2cc3ccccc3nc21
    -8	40	-2.0	0	0	-23	-0.1	-3.6	8	14
Cc1ccc(NC(=O)N2CCC(C(=O)NCC(C)C)CC2)cc1
    -15	5	-0.5	.	.	.	.	-1.7	-4	-6
O=S(=O)(NCCNS(=O)(=O)c1ccccc1)c1ccccc1
    -7	-2	1.3	-7	.	.	.	4.4	-5	-24
CCOC(=O)c1c(C)c(C(=O)NCCc2ccc(S(N)(=O)=O)cc2)c(C)n1CC
    1	-4	-0.4	6	.	.	.	4.3	-8	-14
CC1=CCC(C(C)(C)NC(=O)c2ccccc2)C/C1=N\O (centres undefined)
    -8	-7	1.3	-1	.	.	.	1.1	16	3

Source: PubChem BioAssay
